Source: PubChem
GIRK2 act: opens human GIRK2 potassium channels; P48051; AID 1259325; hit rate 0.05% among 63,000; calls only for hits at 25 µM; HEK293-GIRK2 thallium flux, Thallos fluorescence;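 active = among the strongest 0.2% of first-round signals and kept after retests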;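 also: first round at about 10 µM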
Target sequence (P48051 whole entry, looked up): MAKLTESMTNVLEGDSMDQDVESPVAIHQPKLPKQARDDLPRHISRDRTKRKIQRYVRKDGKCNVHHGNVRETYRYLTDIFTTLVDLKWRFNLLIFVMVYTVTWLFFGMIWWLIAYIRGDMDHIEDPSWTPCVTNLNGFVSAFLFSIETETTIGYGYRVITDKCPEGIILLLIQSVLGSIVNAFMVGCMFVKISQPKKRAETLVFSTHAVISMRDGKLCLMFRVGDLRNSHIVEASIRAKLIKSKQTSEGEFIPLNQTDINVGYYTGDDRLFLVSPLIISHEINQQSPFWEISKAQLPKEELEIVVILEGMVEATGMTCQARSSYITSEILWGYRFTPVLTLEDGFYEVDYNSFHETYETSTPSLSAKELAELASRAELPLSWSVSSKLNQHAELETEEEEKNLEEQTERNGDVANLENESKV
Calls only; i = inactive. A portion of the library; the hit share may differ from the screen's.

SMILES	GIRK2 act
COc1cccc(NC(=O)Cn2cc(C(=O)c3ccc(C)cc3)c(=O)c3cc(F)ccc32)c1	i
COc1cc(OC)cc(C(=O)NCC2CCN(C(=O)c3cccnc3)CC2)c1	i
O=S(=O)(NCCOc1cccc(C(F)(F)F)c1)c1ccc(F)cc1	i
COc1ccc(C)cc1S(=O)(=O)N1CC(c2nc(-c3ncccn3)no2)C1	i
O=C(c1nnn(-c2ccc(F)cc2)n1)N1CCN(C(=O)C2CC2)CC1	i
CS(=O)(=O)c1ccccc1C(=O)N(CCN1CCOCC1)c1nc2c(Cl)cccc2s1	i
O=c1c(=O)n(-c2ccccc2)ccn1Cc1nc(-c2cccs2)no1	i
O=C(Cn1cnc2c(-c3ccc(Cl)cc3)csc2c1=O)Nc1ccccc1C(F)(F)F	i
Cc1ccc(-c2nc(CN3N=NC4C(=O)N(c5ccc(Cl)cc5)C(=O)C43)c(C)o2)cc1 (stereo not given)	i
Cn1cc(C2=C(c3c4n(c5ccccc35)CCNC4)C(=O)NC2=O)c2ccccc21	i
COC(=O)Cn1c(=O)c2c(nc3n2CCCN3c2ccc(C)c(Cl)c2)n(C)c1=O	i
Clc1ccc(-c2csc(Cc3nc(-c4cccs4)no3)n2)cc1	i
COC(=O)c1ccc(NC(=O)CSc2ncc(CO)n2Cc2ccc(OC)cc2)cc1	i
COCCNC(=O)NCCCn1ccnc1-c1ccccc1	i
COc1ccc(Cc2nnc(Nc3ccc(OC)cc3)[nH]c2=O)cc1	i
Cc1ccc(F)cc1S(=O)(=O)Nc1cnc(N2CCN(c3ccccn3)CC2)nc1	i
Cc1ccc(-c2cc3c(=O)n(CC(=O)Nc4ccc5c(c4)OCCO5)ncn3n2)cc1C	i
CS(=O)(=O)N1CCCc2ccc(NC(=O)c3ccno3)cc21	i
COC(=O)N1CCN(CCNC(=O)NCc2ccc(OC)c(OC)c2)CC1	i
Cc1ccc(CNC(=O)Cn2nc3c(N4CC(C)CC(C)C4)nccn3c2=O)cc1 (stereo not given)	i
CC(C)NC(=O)Cn1cnc2ccccc21	i
CN1C(=O)C(C)(C)COc2cc(NC(=O)Nc3cccs3)ccc21	i
CCOC(=O)Cn1c(=O)c2c(nc3n(-c4ccc(OCC)cc4)c(-c4ccccc4)cn23)n(C)c1=O	i
CCOC(=O)Cn1c(=O)c2c(nc3n(-c4ccc(C(F)(F)F)cc4)c(C)cn23)n(C)c1=O	i
NS(=O)(=O)c1ccc(CCNC(=O)C(=O)Nc2cc(F)ccc2F)cc1	i
O=C(NCC1CCN(C(=O)Oc2ccccc2)CC1)c1c(F)cccc1Cl	i
CC(C)(Oc1ccc(Cl)cc1)C(=O)N1CCN(c2ccc(-c3noc(C(F)(F)F)n3)cn2)CC1	i
O=C(Nc1ccc2c(c1)CCCN2C(=O)c1ccccc1)Nc1ccc2c(c1)OCO2	i
CC1Nc2ncnn2C(c2ccc(Cl)c(Cl)c2)C1C(=O)Nc1ccccc1 (stereo not given)	i
COc1cccc2cc(C(=O)NCc3ccc(C(O)c4cccs4)s3)c(=O)oc12 (stereo not given)	i

Of the compounds above, 5 have a thiophene ring, fused or not:
SMILES	GIRK2 act
O=c1c(=O)n(-c2ccccc2)ccn1Cc1nc(-c2cccs2)no1	i
O=C(Cn1cnc2c(-c3ccc(Cl)cc3)csc2c1=O)Nc1ccccc1C(F)(F)F	i
Clc1ccc(-c2csc(Cc3nc(-c4cccs4)no3)n2)cc1	i
CN1C(=O)C(C)(C)COc2cc(NC(=O)Nc3cccs3)ccc21	i
COc1cccc2cc(C(=O)NCc3ccc(C(O)c4cccs4)s3)c(=O)oc12 (stereo not given)	i

Following part.
SMILES	GIRK2 act
COc1ccc(NC(=O)Cn2c(-c3ccc(C)cc3)ncc(C#N)c2=O)cc1Cl	i
O=C(Nc1ccccc1Cl)N(Cc1ccsc1)CC(F)(F)F	i
O=C(CN1C(=O)CCC1=O)N1CCCC(c2nnc(C(F)(F)F)o2)C1 (stereo not given)	i
Cc1cc(C(O)CCNC(=O)c2cc(=O)c3ccccc3o2)c(C)o1 (stereo not given)	i
Cc1ccc(C(=O)NC2CCN(C(=O)c3cn(-c4ccc(C)c(C)c4)nn3)CC2)cc1	i
CCOC(=O)N1CCN(C2CC(=O)N(c3cccc4ccccc34)C2=O)CC1 (stereo not given)	i
CCOc1ccc(N2CCn3c2nn(Cc2ccc(Br)cc2)c(=O)c3=O)cc1	i
O=C(CN1CCN(C(=O)N2CCCCC2)CC1)Nc1cc(Cl)ccc1Cl	i
Cc1[nH]nc(-c2ccc(OCCN3CCC(C(N)=O)CC3)cc2O)c1-c1ccccc1	i
O=C(Nc1ccc(F)c(Cl)c1)c1cc(=O)c(OCc2ccc(F)cc2)c[nH]1	i

Random excerpt: 2 entries already listed.
SMILES	GIRK2 act
Cc1cc(C(O)CCNC(=O)c2cc(=O)c3ccccc3o2)c(C)o1 (stereo not given)	i
Cc1ccc(C(=O)NC2CCN(C(=O)c3cn(-c4ccc(C)c(C)c4)nn3)CC2)cc1	i

New compounds follow.
SMILES	GIRK2 act
NC(=O)Cn1c(=O)n(CCc2ccccc2)c(=O)c2c3c(sc21)CCCC3	i
COc1ccc(F)cc1S(=O)(=O)N1CCN(c2cc(N3CCOCC3)ncn2)CC1	i
CC(C)(C)c1ccc(C(=O)NCC#CCOc2ccccc2C(N)=O)cc1	i
COc1ccc(-c2noc(CSc3nc4cc(-c5ccccc5)sc4c(=O)n3C)n2)cc1OC	i
COc1ccc(C(=O)Nc2ccc3c(c2)CCC(=O)N3C)cc1OC	i
CCOc1ccc(NC(=O)N(CCc2cccs2)Cc2ccoc2)cc1	i
Cc1nc(SCc2cccc(Cl)c2)[nH]c(=O)c1CC(=O)Nc1ccc(F)cc1	i
CC(C)Oc1ccc(C(=O)NCC(c2cccs2)N(C)C)cc1 (stereo not given)	i
O=C(Cn1cccc(-c2nc(-c3ccccc3)no2)c1=O)Nc1cc(C(F)(F)F)ccc1Cl	i
CN(c1ccc2c(c1)OCCO2)S(=O)(=O)c1ccsc1-c1nc(-c2ccc3c(c2)OCO3)no1	i
OCC(CO)(CO)NCC(O)Cn1c2ccc(Cl)cc2c2cc(Cl)ccc21 (stereo not given)	i
COc1ccc(OC)c(/C=C2\Oc3c(ccc4c3CN(Cc3ccccn3)CO4)C2=O)c1	i
CN(C)C(CNS(=O)(=O)/C=C/c1ccccc1)c1cn(C)c2ccccc12 (stereo not given)	i
COCCn1c(SCC(=O)c2ccc(C)cc2)nc2cc(C(=O)NC3CCCC3)ccc2c1=O	i
COCC1CCCN(Cc2cccc(C(F)(F)F)c2)C1 (stereo not given)	i
Cc1onc(-c2ccccc2Cl)c1C(=O)N1CCC(C(=O)Nc2nccs2)CC1	i
O=C(c1ccccc1Br)N1CCC(COCc2ccc(F)cc2)CC1	i
Cc1cc(NC(=O)C2CCN(C(=O)c3cc(-c4ccco4)on3)CC2)no1	i
COc1ccc(C)cc1NC(=O)C1CCN(c2c(C#N)cnc3ccc(C)cc23)CC1	i
COc1cccc(C2c3c(oc4ccc(Cl)cc4c3=O)C(=O)N2CCO)c1 (stereo not given)	i
CN(C)c1cccc(C(=O)NCCc2ccoc2)c1	i
CC(=O)c1cccc(NC(=O)Cn2c(=O)nc(-c3ccccc3)c3cc(Cl)ccc32)c1	i
O=C(Cn1nc(-n2cccn2)ccc1=O)Nc1ccc(-n2cnnn2)cc1	i
COC(=O)c1c(NCc2ccc(F)cc2F)c2cccc(Cl)c2[nH]c1=O	i
O=C(Cn1nc2c(c1NC(=O)c1ccc(F)c(F)c1)CSC2)NCc1ccccc1	i
COc1ccccc1N1CC(C)Cn2c1nc1c2c(=O)n(Cc2ccc(C)cc2)c(=O)n1C (stereo not given)	i
COc1ccc(CCNC(=O)NCC2CCN(S(=O)(=O)c3cccnc3)CC2)cc1	i
O=C(NCC1COC2(CCCCC2)O1)C(=O)Nc1ccc(N2CCCS2(=O)=O)cc1 (stereo not given)	i
O=C(C(=O)N(Cc1ccccc1)Cc1ccccc1)c1c[nH]c2ccccc12	i
O=C(NCCCn1ccnc1-c1ccccc1)C(=O)NCc1ccccc1Cl	i
Cc1oc(-c2ccc(Cl)cc2[N+](=O)[O-])cc1C(=O)Nc1ccc(S(N)(=O)=O)cc1	i
O=C(Cc1cc(-c2ccc(Cl)cc2)on1)Nc1ccc(F)c(F)c1F	i
Cc1nn(-c2ccc(F)cc2)c2ncc(C(=O)NCCCn3ccnc3)c(Cl)c12	i
O=C(CCc1ccccc1)NC1(c2nc(C3CC3)no2)CCCCC1	i
O=C(/C=C/c1ccc2c(c1)OCO2)Nc1ccc2c(c1)CC(=O)N2	i
Cc1ccc(C)c(NC(=O)/C=C/C2=Cc3ccccc3OC2)c1	i
COc1ccccc1-n1ncc2c(C)nnc(SCC(=O)NCc3ccc4c(c3)OCO4)c21	i
CCS(=O)(=O)N1CCCC(c2nnc(-c3ccccc3F)s2)C1 (stereo not given)	i
Nc1c(C(=O)NCCC2=CCCCC2)c2nc3ccccc3nc2n1/N=C\c1ccncc1	i
COCCn1c(=O)c2c(nc(-n3nc(C)cc3C)n2Cc2cc(C)ccc2C)n(C)c1=O	i

Structures from the list above that have a CF3 group, in the order listed:
SMILES	GIRK2 act
O=S(=O)(NCCOc1cccc(C(F)(F)F)c1)c1ccc(F)cc1	i
O=C(Cn1cnc2c(-c3ccc(Cl)cc3)csc2c1=O)Nc1ccccc1C(F)(F)F	i
CCOC(=O)Cn1c(=O)c2c(nc3n(-c4ccc(C(F)(F)F)cc4)c(C)cn23)n(C)c1=O	i
CC(C)(Oc1ccc(Cl)cc1)C(=O)N1CCN(c2ccc(-c3noc(C(F)(F)F)n3)cn2)CC1	i
O=C(Nc1ccccc1Cl)N(Cc1ccsc1)CC(F)(F)F	i
O=C(CN1C(=O)CCC1=O)N1CCCC(c2nnc(C(F)(F)F)o2)C1 (stereo not given)	i
O=C(Cn1cccc(-c2nc(-c3ccccc3)no2)c1=O)Nc1cc(C(F)(F)F)ccc1Cl	i
COCC1CCCN(Cc2cccc(C(F)(F)F)c2)C1 (stereo not given)	i

(cont.)
SMILES	GIRK2 act
COc1ccc(C)cc1S(=O)(=O)NCC12CC3CC(CC(C3)C1)C2	i
COc1nn(C)cc1C(=O)N1CCOCC1CO (stereo not given)	i
O=C(NCC(O)c1ccoc1)C(=O)Nc1ccon1 (stereo not given)	i
CCOc1ccc(-c2ccc(OCCNC(=O)C(CC)c3ccccc3)nn2)cc1 (stereo not given)	i
O=C(NCc1ccc(Br)cc1)C1CCN(c2cc(Oc3ccccc3)ncn2)CC1	i
O=C(NC1CCCC1)c1ccc2c(=O)n(Cc3ccccc3)c3nn(Cc4ccccc4)c(=O)n3c2c1	i
O=C(Cn1c(-c2ccccn2)nc2ccccc21)Nc1ccccc1C(F)(F)F	i
COc1ccc(-c2csc3c(=O)n(Cc4cccc(C(F)(F)F)c4)cnc23)cc1OC	i
CCOc1ccc(S(=O)(=O)NCCn2ncc3c(N4CCCC4)ncnc32)cc1	i
C=CCOC(=O)C(C#N)c1nc2ccccc2nc1N1CCN(c2ccccc2)CC1 (stereo not given)	i
COc1ccc(C(=O)NC2CCN(c3ccc(-c4ccccc4OC)nn3)CC2)cc1F	i
CC1(C)CC(NS(=O)(=O)c2ccccc2F)CC(C)(C)N1	i
COc1ccc(S(=O)(=O)NCC(c2cccnc2)N2CCN(c3ccccc3OC)CC2)cc1C (stereo not given)	i
COc1cc(/C=C/c2ccncc2)ccc1OC(=O)c1ccc(F)cc1	i
COCCCn1c(-c2cccc(OC)c2)nc2nc3ccccc3nc21	i
COCC(C)(O)CNC(=O)c1cc(-c2cc(OC)ccc2OC)nn1C (stereo not given)	i
CC(=O)CSc1nc2c(c(=O)n(C)c(=O)n2C)n1Cc1ccccc1	i
COc1ccc(Cl)cc1C(=O)NCCCS(=O)(=O)N1CCN(c2ccccn2)CC1	i
Cc1ccc(Cl)c(-n2nnc(C(=O)Nc3ccccc3C#N)c2C)c1	i
CC(=O)Nc1ccc(S(=O)(=O)N2CC(c3nc(-c4ccccc4)no3)C2)cc1	i
CCc1ccccc1N1COc2ccc3c(=O)c(-c4ccc(OC)c(OC)c4)coc3c2C1	i
Cc1ccc(-n2ncc3c(=O)[nH]c(-n4nc(C)cc4NC(=O)COc4ccccc4)nc32)cc1	i
COc1ccc(CNC(=O)N2CCN(CC(O)C3CC3)CC2)cc1 (stereo not given)	i
CC1CCN(S(=O)(=O)c2cccn(CC(=O)Nc3ccc(F)cc3)c2=O)CC1	i
CCOC(=O)N1CCN(CC(O)COc2ccc(Br)cc2Br)CC1 (stereo not given)	i
Cc1ccc(Cn2c(C3CC(=O)N(C(C)(C)C)C3)nc3ccccc32)cc1 (stereo not given)	i
O=C(CCc1c[nH]c2ccccc12)NCCn1nc(-c2ccco2)ccc1=O	i
CCN1CCC2(CC1)Oc1c(OC)cccc1C1CC(c3ccc(OC)cc3)=NN12 (stereo not given)	i
NS(=O)(=O)c1ccc(CCNC(=O)Cn2cnc3c([nH]c4ccccc43)c2=O)cc1	i
O=C(Nc1cc(OCc2ccccc2)ncn1)c1ccc2ccccc2c1	i
Cc1noc(CNC(=O)C2CCN(C(=O)c3ccco3)CC2)n1	i
CNS(=O)(=O)c1ccc(C(=O)N2CCC(Cc3ccccc3)CC2)o1	i
Cc1cc(=O)n(CC(=O)NC2CCCC2)c(N2CCOCC2)n1	i
Cn1c2ccccc2c(=O)c2c(=O)n(Cc3ccccc3)c(-c3ccco3)nc21	i
CCC(C(=O)NC1CC(=O)N(C2CC2)C1)c1ccccc1 (stereo not given)	i
CCC(=O)Nc1ccc2c(c1)N(S(=O)(=O)c1ccccc1)CCC2	i
CSc1cccc(NC(=O)Cn2cnc3c(-c4ccc(Cl)cc4)csc3c2=O)c1	i
Cc1ccc(N2CC(c3nc4ccccc4n3CC(=O)N(C)c3ccccc3)CC2=O)cc1 (stereo not given)	i
Cc1ccc2cc(CCNC(=O)c3ccc(S(=O)(=O)N4CCCCC4)cc3)c(=O)[nH]c2c1	i
COc1ccc(C2CC3C4NN=C(SCC(=O)Nc5ccc(OC)cc5OC)N4C=CN3N2)cc1 (stereo not given)	i
O=C(COc1ccccc1F)NCC1(O)CCc2ccccc2C1 (stereo not given)	i
COc1ccccc1CNC(=O)C(=O)NCC(C)(O)c1ccc2c(c1)OCO2 (stereo not given)	i
